Assay outcomes: PubChem BioAssay, several laboratories
Hsc70 – Hsc70 inhibitors, probe displacement, primary screen, biochemical, fluorescence polarization (AID 568). displacement, % at 20 µM; hits with a dose series show IC50 in µM. 83,000 tested, under 10 active. Hsc70 fluorescence polarization, probe displacement; higher % means a stronger effect; strong numbers were not always called active;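 active means displacement above 50% without optical interference and an IC50 on retest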;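 further: ATPase domain with a fluorescein-tagged ATP probe; 0% = vehicle and 100% = excess ADP; read after one hour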
WNV protease inh – inhibitors of WNV NS2B-NS3 protease, primary screen, biochemical, fluorogenic substrate; 65,000 compounds, 0.18% hits; fluorogenic substrate Ex360/Em465; stronger effect = lower value; z-score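 (tested at a level between 10 and 100 µM)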; Genome polyprotein (West Nile virus), P06935; AID 577, 2007;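 active means z-score at -3 or under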;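 further: score is relative to mean and spread of the compound wells of a plate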
Target sequence (P06935 1371-1501 limits assumed): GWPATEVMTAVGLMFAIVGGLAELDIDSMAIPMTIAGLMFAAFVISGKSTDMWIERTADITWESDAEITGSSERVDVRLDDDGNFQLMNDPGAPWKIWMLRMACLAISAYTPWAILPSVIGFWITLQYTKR
Target sequence (P06935 1502-1679 limits assumed): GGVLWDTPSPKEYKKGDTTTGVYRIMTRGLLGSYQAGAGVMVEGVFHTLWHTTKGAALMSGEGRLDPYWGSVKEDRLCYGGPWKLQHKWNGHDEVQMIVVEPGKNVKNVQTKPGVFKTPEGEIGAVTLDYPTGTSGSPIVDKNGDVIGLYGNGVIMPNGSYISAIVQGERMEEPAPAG
MT1-MMP promoter – inhibitors of MT1-MMP promoter transcription, cell-based, luciferase reporter, luminescence (AID 618) | 87,000 compounds, 0.62% hits | calls from a first round at 10 µM; hits with a dose series show EC50 in µM | MT1-MMP promoter luciferase reporter cells, luminescence;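 active means over half of the reporter light lost at 10 µM or EC50 under 50 µM; inactive means the rest and hits that failed the dose series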;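 further: actives suppress MT1-MMP promoter-driven transcription so potencies describe inhibitors; HT1080 fibrosarcoma cells; overnight exposure; toxic or luciferase-blocking compounds were not removed from the actives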
* = called active by the depositor; i = inactive; · = no result given; + = active, no number.

SMILES	Hsc70	WNV protease inh	MT1-MMP promoter
Cc1ccc(S(=O)(=O)c2nc(NCCCn3ccnc3)sc2Cl)cc1	2.9%	0.4	i
CC(C)COCC1CC2(CC(C)(c3csc(N)n3)OC2=O)C(=O)O1 (stereo not given)	5.2%	1.34	i
CS(=O)(=O)N(Cc1ccc(C(=O)NCc2ccco2)cc1)c1ccccc1	1.5%	-0.98	i
CCOC(=O)C1CCN(S(=O)(=O)c2cccc(-c3cn4cccnc4n3)c2)CC1	2.1%	1.82	i
CSC1=C(C#N)C(c2ccc(C)s2)CC(=O)N1 (stereo not given)	-3.1%	0.22	i
C#CCOC(=O)CCC(=O)Nc1cc(OC)nc(OC)n1	1.8%	0.01	i
O=C(c1ccco1)N1CCN(C2=NS(=O)(=O)c3ccccc32)CC1	-4.9%	-0.51	i
CC(=O)c1c(C)n([O-])c2cc(C)ccc2[n+]1=O	-2.8%	-1.17	i
CCOCCn1c(CN2CCC(C)CC2)nc2c1c(=O)n(C)c(=O)n2C	0.0%	1.07	i
COCCCNC(=O)c1ccc(C(=O)NCCCOC)cc1	6.1%	0.28	i
CCOc1ccc(-n2c(SCC(=O)NC(C)CC)nc3n[nH]c(C)c3c2=N)cc1 (stereo not given)	-4.1%	-0.28	i
Brc1ccc2ncnc(NCc3ccccc3)c2c1	-0.4%	·	i
O=S(=O)(c1ccccc1)N1c2cc(Cl)ccc2Oc2nc3ccccc3nc21	3.5%	·	i
O=C(COc1ccc(Cl)cc1Cl)Nc1nc2n(n1)C(c1ccccc1)CC(=O)N2 (stereo not given)	5.4%	0.47	i
Cc1cc(C)c(NC(=O)CN2C(=O)NC3(CCCCC3)C2=O)c(C)c1	4.6%	0.85	i
COc1ccc(-n2c(=O)c3c4c(sc3n3c(C)nnc23)CCCC4)cc1	1.4%	-0.27	i
COc1ccc(C2N3CC4(C)CN2CC(C)(C3)C4O)cc1OC (stereo not given)	-1.5%	-0.12	i
Cc1cccc(NC(=O)C2CCN(S(=O)(=O)c3cccc4nsnc34)CC2)n1	5.6%	-0.61	i
O=C(CN1CCN(CC(=O)Nc2ccccc2Cl)CC1)Nc1ccc2c(c1)OCCO2	-0.2%	1.26	i
CCn1cc(C(=O)NC2CCCCCC2)c2cc(OC)c(OC)cc2c1=O	-5.2%	0.04	i

An excerpt of these results, with bars between the fields.
structure | Hsc70 | WNV protease inh | MT1-MMP promoter
CS(=O)(=O)N(Cc1ccc(C(=O)NCc2ccco2)cc1)c1ccccc1 | 1.5% | -0.98 | i
C#CCOC(=O)CCC(=O)Nc1cc(OC)nc(OC)n1 | 1.8% | 0.01 | i
Cc1cc(C)c(NC(=O)CN2C(=O)NC3(CCCCC3)C2=O)c(C)c1 | 4.6% | 0.85 | i
Brc1ccc2ncnc(NCc3ccccc3)c2c1 | -0.4% | · | i
CCOc1ccc(-n2c(SCC(=O)NC(C)CC)nc3n[nH]c(C)c3c2=N)cc1 (stereo not given) | -4.1% | -0.28 | i

(cont.)
SMILES	Hsc70	WNV protease inh	MT1-MMP promoter
O=C(CSc1nnc2ccccn12)NC(=O)NC1CCCC1	1.4%	1.73	i
CCCC1S/C(=N/N=C/c2ccc(C)cc2)N(Cc2ccc(OC)cc2)C1=O (stereo not given)	9.7%	·	i
Oc1ccccc1C1Nc2cccc3cccc(c23)N1	3.7%	-1.95	i
CCN(CC)C(=O)C1CCCN(Cc2ccccc2F)C1 (stereo not given)	-1.9%	-0.99	i
Cc1ccc(N(CC(=O)N2CCN(C3CCCCC3)CC2)S(=O)(=O)c2cccnc2)cc1	-1.8%	-0.41	i
Cc1nc(N)nc(C)c1Cc1ccccc1	-3.1%	-0.43	i
CC1CCCN(c2nc3ccccc3nc2C(C#N)C(=O)OC2CCCCC2)C1 (stereo not given)	5.3%	0.3	i
O=C(Nc1ccc2c(c1)C(=O)N(CC1CCCO1)C2=O)c1ccc(Cl)c(Cl)c1 (stereo not given)	-7.7%	·	i
COc1ccc(-c2csc(NCc3ccco3)n2)cc1C	-10.4%	1.3	i
CN(C)c1ccc(-c2nnn(CC(=O)N3c4ccccc4CCc4ccccc43)n2)cc1	-10.1%	-2.02	i
N=c1sccn1CC(=O)NCCc1ccc(Cl)cc1Cl	2.5%	·	i
O=C(CN(C(=O)c1ccc(Cl)cc1)N1C(=O)C2CCCCC2C1=O)c1ccc(Cl)cc1 (stereo not given)	4.5%	·	i
Cc1ccc(-n2nc3c(N4CCN(c5ccccc5)CC4)nnc(C)c3c2C)cc1	0.4%	·	i
Nc1nc(CSc2nnnn2-c2ccc(Cl)cc2)nc(N2CCOCC2)n1	0.8%	·	i
CC1(C)NC(=O)N(CC(O)COc2cc3ccccc3cc2C(=O)N2CCCCC2)C1=O (stereo not given)	-6.4%	0.49	i
COCCOC(=O)C1=C(C)N=C2SCCC(=O)N2C1c1cc(Br)ccc1OC (stereo not given)	-0.1%	-0.05	i
COc1ccc(Cc2nnc(NC(=O)c3ccco3)s2)cc1	-0.2%	·	i
O=C(COc1ccc(-n2cnnn2)cc1)NC(=O)NCc1ccccc1	-7.6%	0.42	i
COc1ccc(N2CCN(C(c3cccs3)C(C)NS(=O)(=O)c3ccccc3)CC2)cc1 (stereo not given)	-1.0%	-0.36	i
Cc1ccc(C)c(OCC(=O)Nc2ccc3c(c2)OCO3)c1	-0.1%	-0.74	i
CCOC(=O)c1ccccc1NC(=O)CSc1nnc(COc2ccccc2C)n1C	2.2%	0.29	i
COCc1cc(=O)n2[nH]c(-c3ccc(C)cc3)cc2n1	3.8%	·	i
CCc1c(C)c2cc(Cl)c(O)c(CN(C)C)c2oc1=O	4.1%	10	i
COC(=O)C(NC(=O)c1ccco1)(Nc1nc(C)cs1)C(F)(F)F (stereo not given)	1.2%	-0.06	i
CCOc1ncccc1C(=O)NCC1COc2ccccc2O1 (stereo not given)	-2.9%	0.98	i
CCOC(=O)c1ccccc1NC(=O)COC(=O)c1ccc(C)c(S(=O)(=O)N2CCOCC2)c1	2.3%	0.42	i
O=C(CCSc1ccccc1)NCCSc1ccccn1	-1.9%	-0.47	i
Cc1ccc2[nH]c(=O)c(CN(Cc3ccco3)C(=O)c3cccs3)cc2c1	1.1%	-0.09	i
CCOc1ccccc1NC(=O)CCS(=O)(=O)c1cccc2nonc12	-0.1%	-0.49	i
COC(=O)c1ccccc1NC(=O)N1CSC[C@H]1C(=O)OC	-1.6%	1.95	i
Cc1nc2sc(C(c3cccs3)N3CCC4(CC3)OCCO4)c(O)n2n1 (stereo not given)	-2.2%	0.41	i
CC(C)CCNC(=O)c1ccc2c(c1)N(Cc1ccccc1)C(=O)CS2=O (stereo not given)	-2.9%	0.11	i
CCC1CCCCN1C(=O)c1c(-c2ccccc2)noc1C (stereo not given)	1.3%	·	i
CN(C(=O)c1ccccn1)c1nnc(-c2cccnc2)s1	-1.5%	0.1	i
CC(C)(C)n1nnnc1C(c1cccnc1)N1CCN(C2CCCCC2)CC1 (stereo not given)	-3.2%	-0.46	i
CCCCN1C(=O)C2C(c3ccc(OC)cc3O)NC(CC(C)C)(C(=O)O)C2C1=O (stereo not given)	1.6%	-1.14	i
CN(c1nc2c(c(=O)n(C)c(=O)n2C)n1CC(=O)c1ccccc1)C1CCCCC1	5.1%	0.84	i
COC(=O)Cn1cc(C#N)c2ccccc21	-0.2%	·	i
O=C(CCn1nc(-c2ccccc2)ccc1=O)N1CCN(c2ccccn2)CC1	-5.3%	1.1	i
Cc1cc(-c2nnco2)c(C)n1-c1ccc(F)cc1	0.6%	-0.81	i

Part of the list above, set out differently:
> CCCCN1C(=O)C2C(c3ccc(OC)cc3O)NC(CC(C)C)(C(=O)O)C2C1=O (stereo not given)
- Hsc70 = 1.6%
- WNV protease inh = -1.14
- MT1-MMP promoter = i

> CN(c1nc2c(c(=O)n(C)c(=O)n2C)n1CC(=O)c1ccccc1)C1CCCCC1
- Hsc70 = 5.1%
- WNV protease inh = 0.84
- MT1-MMP promoter = i

The list continues.
SMILES	Hsc70	WNV protease inh	MT1-MMP promoter
N#CN=C(N)c1ccccc1	-7.6%	0.21	i
CC1CCN(C(=O)CSc2nnc(-c3ccco3)o2)CC1	-0.9%	-0.37	i
CCOc1ccc(N2C(=O)CCC2=O)cc1	-5.8%	-0.23	i
CCOC(=O)c1c(C)[nH]c(C)c1C(=O)COc1ccc(NC(=O)c2ccco2)cc1	4.2%	1.07	i
Cc1ccc2nc(CSc3nnc(-c4ccco4)o3)cc(=O)n2c1	-0.6%	-0.35	i
CCCCNC(=S)NNC(=O)c1ccco1	4.0%	·	i
Cc1cc(C(=O)CN2C(=O)NC(Cc3c[nH]c4ccccc34)C2=O)c(C)n1C (stereo not given)	-2.3%	-0.48	i
Cc1ccc(S(=O)(=O)NNC(=S)Nc2ccccc2)cc1	3.4%	·	i
COc1ccc(-n2c(C)cc(C(=O)COc3ccc(-n4cnnn4)cc3)c2C)cc1	-2.5%	-0.67	i
Nc1ccc2oc(-c3ccccc3Cl)nc2c1	-5.2%	0.00704	+
O=C1c2ccccc2C(=O)N1CCCCSc1nnc(-c2ccc(OC(F)F)cc2)o1	-2.1%	-0.7	i
O=C(Nc1ncnc2c1ncn2C1OC(COC(=O)c2ccccc2)C(F)C1O)c1ccccc1 (stereo not given)	-6.8%	-0.4	i
Cc1cc(NC(=O)COc2ccc3oc4ccccc4c3c2)no1	-7.8%	0.28	i
COc1ccccc1NS(=O)(=O)c1ccc(NC(=O)c2nc3nc(C)cc(C(F)F)n3n2)cc1	1.5%	·	i
O=c1cc(N2CCC3(CC2)OCCO3)[nH]c(=O)n1-c1ccc(Cl)cc1	-10.0%	2.02	i
CCN(CC)S(=O)(=O)c1cccc(-c2nnc(SCCCC(=O)c3ccccc3)o2)c1	3.9%	-0.44	i
CCOC(=O)C1C(=O)OC(C)(C)C1C(C)C(=O)c1ccc(OC)cc1 (stereo not given)	5.0%	-0.2	i
O=[N+]([O-])/C(=C\Nc1ccccc1)S(=O)(=O)c1ccccc1	1.1%	·	i
c1ccc2c(c1)oc1c(N3CCN(Cc4ccc5c(c4)OCO5)CC3)ncnc12	-0.3%	0.2	i
COC(=O)c1ccccc1NC(=O)CN(C1CCCCC1)S(C)(=O)=O	9.1%	0.97	i

Record cards (already shown). Order of values: Hsc70	WNV protease inh	MT1-MMP promoter
`CCOC(=O)c1ccccc1NC(=O)COC(=O)c1ccc(C)c(S(=O)(=O)N2CCOCC2)c1` in the list: 2.3%	0.42	i
`CCOc1ccccc1NC(=O)CCS(=O)(=O)c1cccc2nonc12` in the list: -0.1%	-0.49	i
`COc1ccc(N2CCN(C(c3cccs3)C(C)NS(=O)(=O)c3ccccc3)CC2)cc1` (stereo not given) in the list: -1.0%	-0.36	i

Next compounds follow.
SMILES	Hsc70	WNV protease inh	MT1-MMP promoter
COC(=O)CNC(=O)CNC(=O)Nc1ccccc1	7.1%	-0.2	i
CCOCCCn1c(SCC(=O)NC(C)C)nc2ccccc2c1=O	1.7%	-0.03	i
COc1ccc(C)cc1NC(=O)COCC(=O)O	-4.7%	-0.52	i
CC1CC2(C)Oc3ccccc3C3OCC1(CO)C(C)C32 (stereo not given)	-7.7%	0.61	i
COc1ccc(C2(NC(C)=O)CCN(C(=O)c3ccco3)CC2)cc1	2.9%	-1.37	i
CC(=O)Nc1ccc(NS(=O)(=O)Cc2ccccc2)cc1	4.1%	0.31	i
Cc1ccccc1-n1c(=O)c2ccccc2n2c(=O)[nH]nc12	2.8%	-0.33	i
COc1ccc(-c2cc(C(=O)NCCN3CCOCC3)c3ccccc3n2)cc1	-0.8%	1.18	i
CSc1ccccc1NS(=O)(=O)c1ccccc1	-5.8%	-0.2	i
CN(Cc1ccccc1)C(=O)CN(C1CCCCC1)S(C)(=O)=O	3.0%	0.44	i
Cc1nc2sc(C(c3cccs3)N3CCOCC3)c(O)n2n1 (stereo not given)	4.3%	-0.56	i
Cc1nn(C)c(C)c1S(=O)(=O)N1CCCC(C(=O)NCCc2ccc(Cl)cc2)C1 (stereo not given)	-2.7%	-0.17	i
COc1ccc(CNC(=O)c2nnn(Cc3ccc(OC)cc3)c2N)cc1	0.5%	0.04	i
O=c1nc2s/c(=C\c3ccco3)c(=O)n2nc1Cc1ccccc1	-3.8%	-0.53	i
CCOC(=O)Nc1ccc(C(=O)NCC2CCCO2)cc1 (stereo not given)	-5.5%	-1.19	i
COc1ccc(Nc2nc(=O)[nH]nc2C)cc1	-3.8%	·	i
Cc1ccc(/C(C#N)=C\c2cn(C)c3ccccc23)cc1	-4.1%	1.07	i
CCN(CC)S(=O)(=O)c1cccc(-c2nnc(SCCOc3ccccc3)o2)c1	-1.4%	2.01	i
O=C1OCC(c2ccccc2)=C1c1ccc(S(=O)(=O)N2CCOCC2)s1	-3.1%	-1.14	i
N#Cc1nc(-c2ccco2)oc1NCCCN1CCOCC1	-3.3%	0.44	i
CCc1cc(=O)oc2c(C)c(O)c(CN(C)C)cc12	2.7%	9.3	i
CC1(C)CC(=O)C2=C(C1)OC(N)=C(C#N)C2c1cccc(OC(=O)c2ccco2)c1 (stereo not given)	4.9%	-0.61	i
CCOC(=O)/C(=C\c1ccc([N+](=O)[O-])o1)NC(=O)c1ccccc1	1.3%	·	i
Clc1cccc(CSc2ncn(-c3ccccc3)n2)c1	0.4%	·	i
CCCOc1ccc(C(O)C(CN2CCOCC2)c2ccccc2)cc1 (stereo not given)	3.6%	·	i
C=C(C)COc1ccc(-c2[nH]ncc2-c2ccccc2)c(O)c1	2.2%	·	i
Cc1ccccc1CSc1ncc(C#N)c(N)n1	-10.5%	0.23	i
